Source: PubChem BioAssay (several laboratories)
Calb FLC – C. albicans growth inhibition with fluconazole, primary screen, CaCi-2 strain, Alamar Blue fluorescence | AID 1979, 2009 | 0.57% of 300,000 active | growth inhibition, % (test concentration not listed) | C. albicans CaCi-2 (fluconazole-resistant clinical isolate) + fluconazole, 48 h;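 active = most replicates above 75%; inconclusive = exactly half above 75%; inactive = most below 75%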;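 note: all wells also contain fluconazole at 8 µg/ml as a sub-toxic cotreatment; 0% = median of DMSO wells and 100% = median of geldanamycin control wells; wells of about 8 µL received 7.5 nL stock; the first replicate is given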
B2AR ag – beta2AR agonists driving receptor internalization, primary screen, cell-based, FAP fluorogen, flow cytometry | Beta-2 adrenergic receptor (Homo sapiens), P07550 | AID 504454, 2011 | 0.43% of 340,000 active | response, % (test concentration not listed) | Am2.2-beta2AR cells; reference of the scale not given here;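 active = response above a set limit, near 3 SD of response in nonfluorescent compounds, cut at about 42% in these data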;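 note: stock transfer was 100 nL into about 11 µL; a reference agonist was the positive control; negative values mostly stem from fluorescent compounds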
Target sequence (P07550 whole entry, looked up): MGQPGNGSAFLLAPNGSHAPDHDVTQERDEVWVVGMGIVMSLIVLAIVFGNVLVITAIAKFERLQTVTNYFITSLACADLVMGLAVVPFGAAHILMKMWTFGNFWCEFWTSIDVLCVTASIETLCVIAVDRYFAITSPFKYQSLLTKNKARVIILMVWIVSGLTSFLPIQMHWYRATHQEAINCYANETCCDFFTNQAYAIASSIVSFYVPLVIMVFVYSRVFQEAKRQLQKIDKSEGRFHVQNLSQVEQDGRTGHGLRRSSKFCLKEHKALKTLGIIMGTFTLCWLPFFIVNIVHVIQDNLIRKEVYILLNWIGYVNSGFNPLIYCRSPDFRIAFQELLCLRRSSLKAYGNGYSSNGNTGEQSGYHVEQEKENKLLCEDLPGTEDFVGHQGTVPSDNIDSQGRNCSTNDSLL
ALR inh – inhibitors of human ALR sulfhydryl oxidase, primary screen, biochemical, H2O2 detection, HRP-luminol luminescence, single point. purified ALR, DTT oxidation. FAD-linked sulfhydryl oxidase ALR (Homo sapiens), P55789. 3.8% of 290,000 active. inhibition, % (no concentration beside the values);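 active = mean and each replicate at 75% or more; inconclusive = only one of the two met; inactive = neither met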;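 note: stock transfer was 7.5 nL into about 7.5 µL; 0% = neutral wells and 100% = wells with inactivated enzyme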
Target sequence (P55789 whole entry, looked up): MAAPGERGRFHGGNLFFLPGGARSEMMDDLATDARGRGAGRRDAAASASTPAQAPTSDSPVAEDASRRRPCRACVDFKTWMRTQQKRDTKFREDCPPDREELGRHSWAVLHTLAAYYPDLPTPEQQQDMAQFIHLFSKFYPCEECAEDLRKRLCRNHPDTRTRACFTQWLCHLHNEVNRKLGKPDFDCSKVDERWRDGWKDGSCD
RanGTP-Impb inh – inhibitors of RanGTP-importin-beta interaction, primary screen, biochemical, FRET, CFP-Ran, YFP-importin-beta, homogeneous; Ran GTPase (GTP-bound) - importin-beta complex; cell-free CFP-Ran/YFP-importin-beta FRET ratio; inhibition, % (concentration not given with the values); 1.1% of 300,000 active; AID 2216, 2009;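 active = most replicates above 15%; inconclusive = exactly half above 15%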;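 note: 0% = DMSO wells and 100% = Ran loaded with GDP instead of GTP; wells of about 40 µL received 100 nL stock; the first replicate is given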
LANA-H2A inh – blockers of LANA interaction with H2A/H2B – biochemical, FP readout, HTS, primary screen; Protein LANA1 (Human herpesvirus 8 type P (isolate GK18)), Q9QR71; cell-free LANA-H2A/H2B peptide, fluorescence polarization; inhibition, % (no concentration beside the values); 0.6% of 320,000 active; AID 2629, 2010; in the data active = inhibition mostly above about 10%, no sharp cut-off; inactive = mostly below about 6.7%;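 note: stock transfer was 7.5 nL into about 10 µL; 0% = median of vehicle wells and 100% = median of positive control wells; one replicate is shown; the record names a cut of 25% in any replicate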
Vif TR-FRET – inhibitors of Vif binding to APOBEC3G peptide, primary screen, biochemical, TR-FRET, GST-Vif 1-94, biotin-A3G peptide, dose response retest (AID 1117319) | TR-FRET GST-Vif / biotin-A3G peptide binding; higher % means a stronger effect; test concentration not given here; strong numbers were not always called active | Virion infectivity factor (Human immunodeficiency virus type 1 group M subtype B (isolate … | 0.57% of 260,000 active | inhibition, %; hits with a dose series show IC50 in µM;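 active = above the screen mean plus three standard deviations and confirmed in dose response; inconclusive = results disagree or hit not tested in dose response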;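 note: Vif residues 1-94 fused to GST binding biotinylated APOBEC3G peptide 110-148; 0% = full assay without inhibitor and 100% = GST in place of GST-Vif; retest series ran down from 100 µM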
HNF4A DNA FP – change in binding of human HNF4A to DNA, primary screen, biochemical, fluorescence polarization, FITC-DNA | AID 1224865, 2016 | activity change, % at 10 µM | 1 h | 0.3% of 360,000 active | Hepatocyte nuclear factor 4-alpha (Homo sapiens), P41235; in the data active = activity change above about 30%, passing the limit was not always enough;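 note: controls were the assay level and a saturating level of protein; the project sought stronger binding though the title names inhibitors; some compounds called inactive have numbers as strong as hits; positive values seem to mean higher polarization but the record does not say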
Active calls of the source: *; ? = inconclusive; . = not tested or not shown; & = joins results of further samples. A portion of the library; count on the stated rates, not on these rows.

Molecule	LANA-H2A inh	B2AR ag	ALR inh	RanGTP-Impb inh	Calb FLC	Vif TR-FRET	HNF4A DNA FP
CCC(C)NC(=O)c1c(N)n(Cc2ccc3c(c2)OCO3)c2nc3ccccc3nc12 (configuration not stated)	4.3	23.0	-3.9	60.4*	-0.8	-3.9%	7.7
COc1ccc(C(O)c2cc(OC)ccc2OP(=O)(N(C)C)N(C)C)cc1 (configuration not stated)	5.1	-11.9	0.3	-2.6	-2.8	.	2.5
COc1ccc(C2(C#N)CC[N+](C)(C)CC2)cc1	20.6	6.7	-5.7	-2.2	-9.3	9.6%	0.2
O=C1c2ccccc2-c2cc3ccccc3cc21	.	0.2	.	.	.	-16.4%	-6.3
CCCCOc1ccc(CN2CCN(CC)CC2)cc1	3.8	-1.7	-2.6	-3.8	2.7	67.7%	-5.0
O=C1NC(=O)C(Nc2ccccc2)C(=O)N1	.	0.5	.	.	.	2.3%	1.0
COc1ccc(Cn2c(N)c(C(=O)NCc3ccco3)c3nc4ccccc4nc32)cc1	-1.2	2.6	-0.9	61.1*	1.1	4.1%	12.1
C=C[C@@H]1C2=CCOC(=O)C2=CO[C@H]1O[C@@H]1O[C@H](CO)[C@@H](O)[C@H](O)[C@H]1O	1.4	-2.9	5.3	.	.	.	4.1
O=C(c1cc(S(=O)(=O)N2CCC3(CC2)OCCO3)ccc1F)N1CCC2(CC1)OCCO2	-0.4	-0.4	0.9	0.9	9.7	-1.3%	4.4
Cc1ccc(OP(N)(=O)Oc2ccc(C)cc2)cc1	.	1.9	.	?	-8.5	30.6%	2.1
Cc1c(C(=O)C(=O)N2CCC3(CC2)OCCO3)c2ccccc2n1C	-4.9	1.7	1.9	0.4	-6.9	1.9%	-1.7
COc1ccc(C(=O)OC2C[C@H]3CC[C@@H](C2)N3O)cc1OC (some centres not stated)	-0.4	62.1*	-15.7	-2.9	-3.2	4.9%	-0.4
CCC(C)C(=O)N[C@@H](c1ccccc1)[C@@H](O)C(=O)O[C@H]1C[C@@]2(O)[C@@H](OC(=O)c3ccccc3)C3[C@](C)(C(=O)[C@H](OC(C)=O)C(=C1C)C2(C)C)[C@@H](O)C[C@H]1OC[C@@]31OC(C)=O (some centres not stated)	-1.4	-21.0	.	1.6	2.2	.	1.3
O=C1C2CCCN2C(c2ccc(Cl)cc2)N1c1ccccn1 (configuration not stated)	1.1	6.4	-1.3	-6.6	11.1	84.7µM*	-3.2
O=C(c1ccccc1F)c1cn(CC(=O)N2CCOCC2)c2ccccc12	-5.8	-3.5	-3.2	-0.4	-1.0	-5.9%	-0.8
CCC(C)n1c(O)c(/C=N/N2CCOCC2)c(=O)[nH]c1=S (configuration not stated)	3.3	3.5	27.4	?	-22.0	.	0.8
CC(=O)c1cn(CC(=O)NCCc2c[nH]c3ccccc23)c2ccccc12	1.8	-3.5	2.6	3.6	0.7	.	3.2
O=C1NC(=O)C(=Cc2cc3c(cc2[N+](=O)[O-])OCO3)C(=O)N1	6.4	-2.0	38.0	0.2	7.0	-3.0%	0.4
CCn1c(O)c(C=NCc2cccs2)c(=O)[nH]c1=O	2.5	-2.0	3.1	1.0	-0.6	1.5%	2.9
CCc1nc2ccccc2c(=O)n1-c1cccc(OC)c1	8.1	0.4	5.4	9.4	4.8	-1.0%	-1.7
Cn1c(O)c(/C=C2\C=Nc3ccccc32)c(=O)n(C)c1=O	1.6	-2.6	57.4	-0.5	-4.7	-2.9%	0.9
COC1=CC2C3Cc4ccc(OC)c(O)c4C2(CCN3C)CC1=O (configuration not stated)	9.3	-0.5	2.2	.	.	-3.3%	7.7
CCCOC(=O)c1ccc(-[n+]2c(-c3ccccc3)cc(-c3ccccc3)cc2-c2ccccc2)cc1	1.0	-2.4	-15.0	3.0	-10.1	.	1.6
CC(C)(C)c1cc(OC(=O)Cc2ccccc2)ccc1O	0.5	19.8	44.6	-0.8	-5.2	.	-6.0
Cc1cc(=O)oc2c(C)c(OCC(=O)N3C[C@H]4C[C@@H](C3)c3cccc(=O)n3C4)ccc12	0.2	0.8	-2.4	8.0	-6.0	.	1.1
C=CCN1C(=O)/C(=C/c2ccc(N3CCOCC3)o2)C(=O)NC1=S	-9.7	1.3	12.1	-23.3	1.8	.	80.3*
O=C(C1CCCO1)N1CCC2(CC1)OCCO2 (configuration not stated)	-1.8	-1.7	-5.3	-3.1	5.6	1.39µM*	-6.1
COC(=O)C1=C(c2cc3ccccc3s2)C[C@@H]2CC[C@H]1N2C(=O)NCc1ccco1	-3.2	5.4	.	0.1	-10.3	.	0.6
Cc1noc(C)c1CC(=O)N1CCCC(N2CCN(c3ccccc3F)CC2)C1 (configuration not stated)	-2.2	7.5	-1.4	0.1	-4.0	.	-1.2
CCn1c(O)c(N=Nc2cccc(S(=O)(=O)N3CCOCC3)c2)c(=O)n(CC)c1=S	0.5	4.3	-2.3	6.9	-1.4	1.6%	8.9
CCCCNC(=O)CN1C(=O)CN=C(c2ccccc2)c2ccccc21	3.0	-1.7	-0.6	0.3	3.2	6.6%	1.7
N=c1n(CCO)c2ccccc2n1Cc1ccccc1	-0.5	2.3	-2.5	4.1	-20.6	0.9%	-1.5
O=c1[nH]c(=O)n(CCc2ccc(F)cc2)c(O)c1/C=N/N1CCCCC1	-3.5	10.1	.	-3.1	8.1	-8.3%	-1.4
CCN(CC)Cc1c[nH]c2ccccc12	-3.3	-1.7	-17.9	.	-6.4	21.2%	2.1
C=CCN1C(=O)NC(=O)/C(=C/c2cnc(SC)nc2)C1=O	8.2	-6.4	18.0	-0.5	-3.3	4.4%	2.0
C=CCn1c(O)c(/C=C2/C=c3ccccc3=N2)c(=O)[nH]c1=S	-1.4	14.9	.	-0.6	-1.1	.	2.3
CC1(C)N2CC3([N+](=O)[O-])CN1CC([N+](=O)[O-])(C2)C3	3.2	-9.0	.	9.8	-3.6	20.4%	-2.9
COc1ccc(-c2nn(CCC#N)cc2C(=O)Nc2ccccc2Br)cc1[N+](=O)[O-]	-4.5	9.7	5.2	-3.2	0.4	15.1%	-2.0
CCOc1cc2c(cc1OCC)-n1cccc1C(c1ccc(OC)cc1)NC2 (configuration not stated)	-4.2	-3.8	32.7	3.5	11.1	-11.3%	1.7
O=S(=O)(O)C(=Cc1ccccc1)c1ccccc1 (tested in a mixture with another compound)	.	3.7	.	.	.	59.8%	0.1
CC1CCC(NCCc2ccc3c(c2)OCO3)CC1 (configuration not stated)	-4.8	-13.5	-3.4	2.0	-2.2	-0.2%	0.1
CCOCC1(CCc2ccccc2)C(=O)NC(=S)NC1=O	.	4.7	.	.	.	6.9%	-0.2
COC(=O)N1C(c2ccccc2)C1c1ccccc1 (configuration not stated)	-8.3	-7.0	0.7	3.1	4.3	.	-1.0
CCS(=O)(=O)N1CCC(C(=O)N2CCC3(CC2)OCCO3)CC1	-3.9	6.6	-3.4	1.4	-14.4	15.4%	-0.8
Cc1cc(C)c(S(=O)(=O)NCC2CCC(C(=O)N3CCC4(CC3)OCCO4)CC2)c(C)c1 (configuration not stated)	-8.3	-1.1	-3.2	2.1	-0.8	39.6µM*	-0.3
N/C(=N/[N+](=O)[O-])N1CCN(C(=O)Oc2ccc([N+](=O)[O-])cc2)CC1	-1.4	5.7	-17.0	-4.3	-1.5	-7.0%	1.3
C[C@@]12N[C@@H](Cc3ccccc31)c1ccccc12	-3.8	-0.1&-17.7	-26.6	0.6	.	.	1.2&0.2
COc1cc(N2CCOCC2)ccc1/C=C1\C(=O)NC(=O)N(Cc2ccc3c(c2)OCO3)C1=O	0.2	8.9	36.5	0.3	-11.8	10.9%	-52.5
O=C(c1ccc(Cl)cc1)C1CCCN(Cc2ccc3nonc3c2)C1 (configuration not stated)	-3.7	6.3	-3.5	-5.7	4.8	10.8%	2.0
CN(C)C(=O)Oc1ccc(NC(=O)N2CCOCC2)cc1	3.3	1.8	-2.4	0.5	7.5	.	2.2

Remaining list, next part:
Molecule	LANA-H2A inh	B2AR ag	ALR inh	RanGTP-Impb inh	Calb FLC	Vif TR-FRET	HNF4A DNA FP
CC1CCCN(CC(=O)c2ccc(Cl)c(Cl)c2)C1 (configuration not stated)	-2.2	5.4	1.4	0.7	-7.3	5.3%	-2.5
NCCc1c(Cc2ccccc2)[nH]c2ccccc12	-0.5	-3.6	10.2	0.5	9.2	.	1.5
COC(=O)C1=C(c2ccc(F)cc2F)C[C@@H]2CC[C@H]1N2C(=O)N1CCCCC1	3.4	2.6	0.5	.	.	.	0.1
N[C@@H](Cc1ccc(N(CCCl)CCCl)cc1)C(=O)O	6.6	2.8	-4.5	.	.	.	8.1
CN(C)CC1CCCCC1OC(=O)c1ccc(Cl)c(Cl)c1 (configuration not stated)	-4.7	1.4	-2.3	-2.4	-14.7	-4.5%	2.5
O=C(CCc1nnc2ccc(NCc3ccccc3)nn12)N1CCC2(CC1)OCCO2	5.6	-8.2	-2.6	10.1	10.1	-10.3%	-1.6
O=c1[nH]c(O)c(N=Nc2cccc(S(=O)(=O)N3CCOCC3)c2)c(=O)[nH]1	0.0	-7.2	.	.	5.8	3.3%	0.6
COC(=O)C1=C(c2ccc(OC)c(OC)c2)C[C@@H]2CC[C@H]1N2C(=O)NC1Cc2ccccc2C1	-4.9	-6.0	10.1	.	.	.	-3.8
Cc1ccccc1N1C(=O)NC(=O)/C(=C\c2cc(C)n(C)c2C)C1=O	0.7	6.7	30.4	-0.1	-3.0	5.9%	-0.6
Clc1ccc(OCC#CCN2CCOCC2)cc1	5.3	-22.3	-13.9	2.2	25.5	.	-2.3
OC(CNC1CCCCC1)C(F)(F)F (configuration not stated)	5.5	4.7	3.1	1.6	-19.8	-7.3%	-4.2
COc1ccc(C(=O)C2CCCN(Cc3ccon3)C2)c(OC)c1 (configuration not stated)	-8.1	1.4	-3.7	3.5	13.7	-20.9%	0.7
O=C(CN1CCCCC1)c1ccccc1F	-5.1	28.9	5.6	.	-25.7	2.0%	0.3
COc1cc2ccccc2cc1C(=O)Nc1ccc(Cc2ccncc2)cc1	-3.4	7.1	-1.9	-3.6	26.3	19.3%	1.6
COc1ccccc1-n1c(O)c(/C=C2\C=Nc3ccccc32)c(=O)[nH]c1=O	-7.5	-6.9	21.7	1.3	-4.1	.	1.1
Cc1cc(OCC(=O)O)c2c3c(c(=O)oc2c1)CCCC3	-6.1	1.1	-5.8	5.5	-8.6	15.0%	-2.3
